RN4220 kill: kills Staphylococcus aureus RN4220; AID 1259311; inhibition, % (test concentration not listed); 330,000 tested, 0.33% active; S. aureus RN4220 growth, OD600, 16 h;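 active = z-score of -3 or lower and OD600 up to 0.18 on both plates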;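 note: plate controls were untreated cells for no effect and reference antibiotic for full effect; stock transfer was 100 nL into about 80 µL; one replicate is shown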
Sa ugtP lethal: compounds lethal to S. aureus RN4220 ugtP deletion mutant; growth inhibition, % (test concentration not listed); 330,000 tested, 0.54% active; OD600 growth, 16 h; some inactives read as strong as hits;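 active = z-score under -3 and OD600 up to 0.15 on both plates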;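 note: plate controls were untreated wells for no effect and antibiotic for full effect; wells of about 80 µL received 100 nL stock; the first replicate is given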
Mtb hypoxia rep: reduces hypoxia-regulated biosensor signal in M. tuberculosis; M. tuberculosis hypoxia-regulated fluorescent reporter, fluorescence; fluorescence inhibition, % (no concentration beside the values); 300,000 tested, 0.1% active; AID 1159583;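 active = 35 to 45% if threefold the growth effect, above 45% if 1.5-fold the growth effect; inactive = the rest, general growth blockers included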;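 note: wells of about 50 µL received 100 nL stock; 0% = vehicle wells and 100% = reference inhibitor wells; whole bacteria with a GFP reporter of the hypoxia response; strong numbers were not always called active; many hits fall short of the cut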
PrP 5UTR inh: inhibition of PrP 5' UTR reporter expression; cell-based PrP 5' UTR mRNA reporter, plate reader; inhibition, % (concentration not given with the values); 340,000 tested, 0.35% active; AID 488862;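 active = every replicate at 50% or more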;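 note: 0 = median of the neutral control wells; tested in H4 reporter cells; numbers are from one replicate; inactives centre near -14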
BJeLR lethal: kills HRASV12-expressing BJeLR cells; BJeLR (HRASV12) viability, CellTiter-Glo ATP luminescence, 48 h; reference of the scale not given here; inhibition, % (concentration not given with the values); 300,000 tested, 0.17% active; AID 1554;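 active = replicate mean above 50%; inconclusive = above 50% but judged a plate artefact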;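 note: 50 nL library stock added to about 25 µL; numbers are from one replicate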
Bead autofluor: flagged as autofluorescent in microsphere protease counterscreen; compound autofluorescence counterscreen, microsphere flow cytometry; active compounds read high; fluorescence intensity (no concentration beside the values); 360,000 tested, 3.1% active; AID 624483;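 active = at least 3 SD above the mean of all compounds, about 16000 in these data; inconclusive = too few beads counted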;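 note: 100 nL of 1 mM stock went into each well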
Mtb hypoxia rep growth: second read-out of Mtb hypoxia rep, no call of its own (marks repeat the call); growth inhibition, %; measured here: M. tuberculosis growth (absorbance);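 0% = vehicle and 100% = reference antibiotic; read after six days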
Starred values were filed as active, the others as inactive; ? = inconclusive; / = no result given; & = joins results of further samples.

SMILES	RN4220 kill	Sa ugtP lethal	Mtb hypoxia rep	Mtb hypoxia rep growth	PrP 5UTR inh	BJeLR lethal	Bead autofluor
CCCCC1(C)NC(=O)c2c(C)sc(C(=O)OCC)c2N1 (configuration not stated)	2.1	-6	/	/	-5	-4	2589
Cn1cccc1C=NNC(=O)C1COc2ccccc2O1 (configuration not stated)	-0.3	0	19	1	/	/	/
COc1ccc2c(c1)C(=O)Cc1ccccc1O2	0.5	-1	-1	-7	-11	-3	/
N#CCC(=O)Nc1ccc(C(=O)NCC2(N3CCOCC3)CCCCC2)cc1	-0.5	3	6	8	/	/	?
CC(CCc1ccccc1)NC(=O)CN1CCN(Cc2ccccc2)C1=O (configuration not stated)	-1.3	3	3	4	-17	-2	11634
COc1cc([N+](=O)[O-])ccc1NC(=O)COC(=O)CCOc1ccc(C)cc1	11	5	9	4	-24	/	3860
CC(=O)Nc1c(C(N)=O)oc2ccc(Cl)cc12	0.6	12	5	-5	-18	-6	6803
CC(C)(C)c1ccc(N2C(=O)Cc3c2nc(N)c(C#N)c3N)cc1	-1.7	-6	8	7	-14	0	?
COC(=O)c1cccc(NC(=S)N2CCN(C)CC2)c1	1.8	11	8	17	-21	-9	3912
COc1ccc(C(=O)NNC(=O)CSc2nnc(-c3cccnc3)o2)cc1	-0.3	5	2	-8	-30	-5	2095

Fetched by compound from the list above, 6 records:
SMILES	RN4220 kill	Sa ugtP lethal	Mtb hypoxia rep	Mtb hypoxia rep growth	PrP 5UTR inh	BJeLR lethal	Bead autofluor
Cn1cccc1C=NNC(=O)C1COc2ccccc2O1 (configuration not stated)	-0.3	0	19	1	/	/	/
COc1cc([N+](=O)[O-])ccc1NC(=O)COC(=O)CCOc1ccc(C)cc1	11	5	9	4	-24	/	3860
COc1ccc2c(c1)C(=O)Cc1ccccc1O2	0.5	-1	-1	-7	-11	-3	/
CC(=O)Nc1c(C(N)=O)oc2ccc(Cl)cc12	0.6	12	5	-5	-18	-6	6803
CCCCC1(C)NC(=O)c2c(C)sc(C(=O)OCC)c2N1 (configuration not stated)	2.1	-6	/	/	-5	-4	2589
N#CCC(=O)Nc1ccc(C(=O)NCC2(N3CCOCC3)CCCCC2)cc1	-0.5	3	6	8	/	/	?

Further structures
SMILES	RN4220 kill	Sa ugtP lethal	Mtb hypoxia rep	Mtb hypoxia rep growth	PrP 5UTR inh	BJeLR lethal	Bead autofluor
CCOC(=O)c1sc2nc(N3CCOCC3)c3c(c2c1N)CCN(Cc1ccccc1)C3	-1.8	9	/	/	3	2	3445
COc1ccc(CCNC(=O)COC(=O)Cc2cccc(F)c2)cc1	1.6	4	9	-5	-23	/	5421
CCN(CC)S(=O)(=O)c1cccc(-c2nnc(SCc3nnc(-c4ccccc4)o3)n2C)c1	-1.5	-1	/	/	-40	1	2781
Cc1cc(Cl)c(OCCCN2CCCCC2)c(Br)c1	/	/	/	/	-17	-6	2179
O=C(Nc1ccc(OC(F)(F)F)cc1)c1ccc2c(c1)no[n+]2[O-]	-0.8	4	/	/	-61	6	6195
CC(=O)Oc1cc2c(C(C)=O)coc2c2ccccc12	11	-5	9	9	-23	-1	3848
COc1ccc(/C=C(/NC(=O)c2cccc([N+](=O)[O-])c2)C(=O)O)cc1	4.2	18	0	12	2	-9	2170
Cc1ccc(O)c(C2=NNC(c3ccc(Cl)cc3)C2)c1 (configuration not stated)	28	17	-5	-3	-46	3	6472
CC(=O)c1ccc(NC(=O)/C(=C\c2ccccc2)NC(=O)c2ccco2)cc1	-1.9	-6	-5	14	-27	-6	4586
COc1cc(C=NNC(=O)COc2c(C)cc([N+](=O)[O-])cc2C)ccc1OC(=O)c1ccccc1	10	-6	3	2	/	/	/
CC(C)(O)C(=O)NN(C(=O)c1ccccc1)c1cccc(Br)c1	0.3	3	/	/	-6	1	2146
CCCCCCSc1ccc([C@H]2N[C@@](CC(C)C)(C(=O)OC)[C@H]3C(=O)N(C)C(=O)[C@@H]23)cc1OC	-24	3	10	5	-16	-9	3029
COc1cc(OC)c(NS(=O)(=O)c2c(C)[nH]c(=O)[nH]c2=O)cc1Cl	3.3	7	4	-1	-22	1	3691
O=C(c1cccc(Br)c1)N1CCN(C2=NS(=O)(=O)c3ccccc32)CC1	/	/	/	/	-24	-2	5482
CC(C)NC(=O)c1cccc(Cn2cc(Cl)cn2)c1	-2.8	1	8	9	-31	-10	22543*
CC(=O)N1CCN(c2ccccc2NC(=O)Cc2ccc(Cl)cc2)CC1	3.8	2	11	5	-5	-8	4258
O=C(CN1CCN(Cc2ccccc2)CC1)Nc1ccc(-n2cnnn2)cc1	0.4	4	-4	-6	0	7	3744
CCN(CC)CCN1C(=O)C(O)=C(C(=O)c2sc(C)nc2C)C1c1cccnc1 (configuration not stated)	1.3	3	0	0	-24	2	6275
O=C(OCCOc1cccc(Cl)c1)C1CCN(S(=O)(=O)c2ccccc2)CC1	2.8	-6	-2	6	-5	-3	5728
COc1ccc2ccccc2c1C=Nn1c(C)cc(C)c(C(N)=O)c1=O	3.6	16	3	-1	/	/	/
CC(C)(C)NC(=O)NC(=O)CN1C(=O)NC(c2ccccc2)(c2ccccc2)C1=O	3.0	-7	1	7	-11	-4	3840
CC(C)CNC(=S)NNC(=O)c1csc2c1CCCC2	3.7	3	12	13	/	-7	11469
O=C(NCc1cccnc1)NC1(C(F)(F)F)Oc2ccc(Cl)cc2O1 (configuration not stated)	4.9	7	9	5	-20	1	5295
CC(=O)Nc1ccc2c(CSc3nnc(N)s3)cc(=O)oc2c1	2.8	11	5	3	-26	12	3387
O=C(c1ccc(C(F)(F)F)cc1)C1CCCN(C(=O)CCn2cncn2)C1 (configuration not stated)	1.4	11	8	-1	-4	10	4374
CCCCCc1cc(=O)oc2c(C(CCN(CC)CC)c3ccc(N(C)C)cc3)c(OC)cc(OC)c12 (configuration not stated)	-6.6	-1	1	-3	2	-6	3104
COc1ccc(S(=O)(=O)N2CCC(C(=O)NCCC(=O)Nc3ccc(Cl)cc3)CC2)cc1	2.5	0	1	2	2	1	4484
CC1CC(C)CN(c2nc(N(C)c3ccccc3)nc(N)c2[N+](=O)[O-])C1 (configuration not stated)	-2.5	7	9	3	-20	2	4603
CCOc1ccc(N/C=C/C(=O)c2ccc(C)cc2)c([N+](=O)[O-])c1	-4.6	1	/	/	-72	-4	2449
CCN(CC)S(=O)(=O)c1ccc(OC)c(NC(=O)c2cc3c(=O)n4ccccc4nc3s2)c1	/	/	/	/	-21	1	1966
COC(=O)CSc1nc(C)c2c(n1)CCCC2	2.3	3	16	7	-8	-3	3337
CC(=O)OCC(=O)c1c[nH]c2ccccc12	-1.0	-4	/	/	-24	4	5991
CCCCn1c(N)c(Sc2ccccc2)c(=O)[nH]c1=O	0.8	1	15	-1	-26	/	25818*
COCCCn1c(N)c(-c2nc3ccccc3n2C)c2nc3ccccc3nc21	1.7	-19	0	8	-48	4	10213
N=C(N1CCCc2ccccc21)N1CCCc2ccccc21	1.5	0	4	6	-6	/	4268
O=c1c(-c2ccc(Cl)cc2)c[nH]n1-c1ccccc1	30	9	6	8	-14	-3	3429
O=C(Nc1ccc(F)cc1)c1nc[nH]c1C(=O)O	3.3	-2	3	14	11	-11	3685
CC(C)CCC(C(=O)O)C(C)CC(=O)NNC(=O)c1ccco1 (configuration not stated)	5.8&6.1	6&1	6&10	9&8	-11&-17	14&-3	4475&4403
Brc1nc(Br)n(Cc2ccccc2)n1	0.2	7	11	16	-14	-1	4400
CCNS(=O)(=O)c1ccc(CCC(=O)NCc2ccc3c(c2)OCO3)cc1	1.8	4	-4	7	-19	21	3674
CC(C)CC(=O)Nc1cc(C(F)(F)F)ccc1N1CCOCC1	3.9	3	10	15	-24	4	3822
CN1CCCC1CCNC1C2CC3CC(C2)CC1C3 (configuration not stated)	-5.8	-4	-7	-9	-23	23	16148*
CCN1CNC(=S)N(c2cccc(C)c2C)C1	4.5	1	4	9	-23	-2	20115*
Cc1ccnc(NC(=O)c2ccc(C(=O)c3ccccc3)cc2)c1	-1.7	1	-15	1	16	0	6096
CCCOC1CCCN(C(=O)c2cc(COc3ccc(F)c(F)c3)on2)C1 (configuration not stated)	7.6	-7	8	6	-34	3	4360
O=C(Nc1ccccc1)C1CCCCN1S(=O)(=O)c1ccccc1 (configuration not stated)	-1.8	4	18	3	11	2	4016
Cc1ccc(S(=O)(=O)NC(=O)COc2ccccc2C)c(C)c1	5.7	-6	5	0	-2	2	4458
Cc1ccc(S(=O)(=O)NC(C)CCc2ccccc2)cc1C(N)=O (configuration not stated)	3.5	13	5	0	-32	-4	3843
O=C(CCS(=O)(=O)Cc1ccccc1)NCC1CCCO1 (configuration not stated)	6.4	4	16	0	-31	4	10359
Cc1cc(NC(=O)CSc2nc(C)c(C)c(=O)[nH]2)no1	2.4	-2	-9	0	3	-8	/

Further results:
SMILES	RN4220 kill	Sa ugtP lethal	Mtb hypoxia rep	Mtb hypoxia rep growth	PrP 5UTR inh	BJeLR lethal	Bead autofluor
CCOC(=O)c1nn(-c2ccc(Br)cc2)cc1C(=O)c1cccc2ccccc12	-1.7	-9	2	7	-25	-2	20527*
CCOC(=O)c1ccc(OCC2NCCc3cc(OC)c(OC)cc32)cc1 (configuration not stated)	1.6	1	8	0	-1	-2	7366
CCOC(=O)c1cc2cc([N+](=O)[O-])ccc2oc1=O	7.4	0	11	-2	-21	0	4544
CCN1C(=O)CS/C1=N\S(=O)(=O)c1ccccc1	/	/	/	/	-14	4	5593
CCCCCCc1c(O)c2ccccc2[nH]c1=O	-0.9	3	5	2	-21	2	9748
CCN1C(=O)[C@H]2[C@@H](c3ccc(SC4CCCCC4)c(OC)c3)N[C@@](Cc3ccccc3)(C(=O)OC)[C@H]2C1=O	/	/	/	/	-15	1	3001
O=C(NNc1ncc(C(F)(F)F)cc1Cl)c1ccc(Cl)c(Cl)c1	5.7	3	6	10	-13	7	/
COCCNC(=O)C1CCCN(S(=O)(=O)c2ccc3c(c2)CC(C)N3C(=O)C2CC2)C1 (configuration not stated)	0.1	7	8	-2	-13	19	5637
Cc1ccc(-c2nnn(CC(=O)N3CCCCC3)n2)o1	7.4	1	4	9	-14	3	3284
CCCCn1c(-c2ccccc2C)nc2cc3[nH]c(=O)c(C(C)C)nc3cc21	5.2	-4	2	2	-11	-3	4025
CC(C)(C)NC(=O)NC(=O)COC(=O)CCC1CCCC1	1.5	2	6	-4	-7	5	5116
COc1cccc(-n2ccnc2SCC(=O)NCc2ccccc2)c1	3.0	-1	/	/	-24	8	2483
CCCOc1ccc(C2=CSC3=NCCN23)cc1Cl	-1.4	-7	17	10	11	-8	3262
O=C(NN=Cc1ccncc1)c1ccc(OCc2ccccc2)cc1	-2.8	-6	-4	0	/	/	/
Cc1oc2nc(SCC(=O)NCCCO)nc(N)c2c1C	2.9	1	-1	0	-9	4	22217*
CN(C)/C=N/NC(=O)c1ccc(Cl)cc1	/	/	/	/	-14	-2	4390
O=S(=O)(Cc1cc(NCc2ccccc2)nc(-c2ccccn2)n1)c1ccccc1	5.0	4	-3	2	-16	-9	1903
CC1CCCCN1C(=O)c1cc2ccccc2cc1O (configuration not stated)	3.8	7	13	5	5	-21	4413
Nc1ccc2c(c1)C(=O)N(CC1CCCO1)C2=O (configuration not stated)	2.2	2	1	10	-21	-3	9318
Cc1cccc(C(=O)NCC(=O)OCC(=O)NCCNC(=O)COC(=O)CNC(=O)c2cccc(C)c2)c1	2.4	4	-21	-11	-9	-3	?
CC1CCCN(c2ccc(C(=O)NCc3ccco3)cc2[N+](=O)[O-])C1 (configuration not stated)	-3.7	16	4	8	-21	-5	2479
CCCC=C1CCCOC(C(=O)NCc2ccc(S(C)(=O)=O)cc2)(C(F)(F)F)C1 (configuration not stated)	4.4	1	-1	1	/	/	/
COc1cc(NC(=O)Cc2ccccc2)nc(OC)n1	1.8	5	5	3	-48	7	3631
CCOC(=O)c1c(NC(=O)CN2CCCCC2)sc2c1CCC(C=O)=C2Cl	-6.8	4	4	11	-7	-5	4847
CCC1CCCCN1C(=S)Nc1ccc(S(=O)(=O)Nc2ncccn2)cc1 (configuration not stated)	4.2	13	13	7	-13	-3	4473

High-throughput results (PubChem)
